Bioassay records deposited in PubChem BioAssay by National Center for Advancing Translational Sciences (NCATS).
Menin-MLL FL inh: displaces fluorescein MLL peptide from human menin; Fluorescence polarization, fluorescein-MLL peptide displacement from menin; 290,000 tested, under 10 active; FP activity change, % at 61.4 µM; inconclusive = falling polarisation curve, or a change in total fluorescence; inactive = total fluorescence flat and polarisation flat or rising; no compound was filed as active; the % refers to the polarisation; negative = inhibition;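 also: % of control where 0% means no effect; inhibitors lower the polarisation; unlabelled MLL peptide was the positive control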
TRPML1 ag: agonists of human TRPML1 channel | Q9GZU1 | TRPML1-expressing cells, Ca2+ dye fluorescence, FDSS; host cell line not named in the record; reference of the full effect not given here | hit rate 0.12% among 410,000 | activation, % (no concentration beside the values); in the data active = activation above about 50%; inconclusive = about 30% to 50%; inactive = below about 30%; also: 0% is about no effect; the text of the record puts the active cut at 80%
Target sequence (Q9GZU1 whole entry, looked up): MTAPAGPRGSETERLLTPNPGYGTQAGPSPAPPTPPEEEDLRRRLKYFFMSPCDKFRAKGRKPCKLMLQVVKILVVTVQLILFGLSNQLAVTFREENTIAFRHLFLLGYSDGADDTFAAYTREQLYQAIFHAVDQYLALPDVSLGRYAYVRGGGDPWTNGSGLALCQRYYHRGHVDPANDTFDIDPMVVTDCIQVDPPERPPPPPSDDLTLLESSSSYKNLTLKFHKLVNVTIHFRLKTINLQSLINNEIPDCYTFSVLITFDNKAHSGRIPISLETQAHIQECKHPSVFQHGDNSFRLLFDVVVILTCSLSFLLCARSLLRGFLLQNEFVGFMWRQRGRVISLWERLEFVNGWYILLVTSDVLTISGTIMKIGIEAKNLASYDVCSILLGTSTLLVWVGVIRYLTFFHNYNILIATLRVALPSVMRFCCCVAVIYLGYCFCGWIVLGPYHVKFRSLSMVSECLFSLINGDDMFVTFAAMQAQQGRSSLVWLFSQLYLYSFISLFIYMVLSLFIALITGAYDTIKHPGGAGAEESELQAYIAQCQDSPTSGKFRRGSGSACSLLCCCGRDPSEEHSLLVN
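In this qHTS format, compounds were pin-transferred onto Ca8-dye-loaded TRPML1-DL cells induced with Tet overnight, and intracellular Ca2+ fluorescence was recorded kinetically for 110 s after a 10 s baseline. A subsequent 4uM final 54-4 (EC80) addition followed by a second 110 s read served as the antagonist phase.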
gsp antag: antagonizes gsp, the McCune-Albright syndrome mutation. gsp-mutant cells, cAMP HTRF, 30 min; control for the full effect not named in the record. Potency, µM (highest dose often 76.9 µM), for the others: at the top dose activity change, negative = inhibition, actives largely listed as inhibitors. hit rate 0.4% among 340,000; active = falling curve of any shape with a large fitted effect; inconclusive = falling curve, mostly with a smaller effect; inactive = flat or rising curve; cell line not stated here;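 also: intracellular cAMP measured with PDE inhibitor Ro 20-1724 present during compound exposure; potency is read from the fitted curve at half-maximal effect; % is scaled to controls: 0 for no effect and ±100 for the full control effect; nearly all actives have a fitted effect of over 65% in size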
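HTRF cAMP measurement after 30 min RT detection following 30 min, 37C compound treatment alongside […] (added as 300 uM solution) in G418-selected cells seeded at 2000/well and grown 16–24 h.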
gsp ag: activates gsp, the McCune-Albright syndrome mutation; AID 624287; Potency, µM (titrated, usually from 76.9 µM), without a hit: top-dose activation (cAMP increase), actives largely listed as activators; hit rate 0.13% among 340,000; gsp mutant cells, cAMP HTRF, 30 min; control for the full effect not named in the record; active = well fitted activation curve with a large enough effect; inconclusive = small, poorly fitted or top-dose-only effect, or another doubt; inactive = no such curve, though single readings can be large or run the other way; cell line not stated here;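 also: phosphodiesterase inhibitor Ro 20-1724 added with compounds to block cAMP breakdown; potency is read from the fitted curve at half-maximal effect; nearly all actives have a fitted effect of over 60% in size; about a fifth of the inactives were tested at one dose only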
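Cells stably selected in G418 were plated at 2000/well, grown 16-24 hr, then given compounds in DMSO with the PDE inhibitor […] (300 uM solution added) for 30 min at 37C; cAMP was read by HTRF.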
ClpP mod: qHTS Assay for Activators of ClpP | ATP-dependent Clp protease proteolytic subunit (Bacillus subtilis (strain 168)), P80244 | purified B. subtilis ClpP, FRET peptide cleavage, 20 min | Potency, µM (top dose mostly 57.5 µM), inactives show top-dose activity change, negative = active | hit rate 1.9% among 340,000 | AID 651965, 2013; active = well fitted falling curve with a large enough effect; inconclusive = small, poorly fitted or top-dose-only effect; inactive = no such curve, though single readings can be large or run the other way; also: potency is read from the fitted curve at half-maximal effect; the source files actives as falling curves though it sought activators and does not explain the sign; nearly all actives have a fitted effect of over 65% in size; many hits overshoot -100%
Target sequence (P80244 whole entry, looked up): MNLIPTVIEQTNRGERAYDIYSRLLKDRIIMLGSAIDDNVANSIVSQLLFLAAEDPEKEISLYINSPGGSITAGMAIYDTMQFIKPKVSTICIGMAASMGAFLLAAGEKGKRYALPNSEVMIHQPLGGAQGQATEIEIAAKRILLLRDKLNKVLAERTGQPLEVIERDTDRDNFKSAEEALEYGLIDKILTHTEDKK
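Purified B. subtilis ClpP, 10 microg/mL final in Tris/HCl pH8 with KCl, BSA, glycerol and Tween-20, cleaved an Abz/nitrotyrosine-quenched decapeptide. Fluorescence (ex 320, em 430) was read at 0 and 20 min at room temperature. Delta was normalized to 5.8 microM ADEP and DMSO/no-enzyme controls.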
TRPML1 blocker: inhibitors of human TRPML1 channel; Q9GZU1; TRPML1-inducible cells, Ca2+ dye fluorescence, FDSS; hits give low values; inhibition of EC80 agonist-evoked calcium signal; activity change, negative = inhibition, % (test concentration not listed); hit rate 0.02% among 390,000; AID 624415; in the data active means activity change below about -50%; inconclusive means about -30% to -50%; inactive means above about -30%;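 also: stimulus is agonist 54-4 at its EC80 concentration; % is scaled to controls: 0 for no effect and ±100 for the full control effect; compound concentration not given in the record; the text of the record puts the active cut at -80%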
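Calcium fluorescence in TRPML1-DL cells induced overnight with Tet: a 110 s read after compound pin addition, then a 110 s antagonist read after challenge with 54-4 at 4 uM final (EC80).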
* hit, by the source's call; ? = inconclusive; . = not tested or not shown; & = joins results of further samples; [ ] = remark or other dose.

SMILES	Menin-MLL FL inh	TRPML1 ag	gsp antag	gsp ag	ClpP mod	TRPML1 blocker
CC1(C)CC(CC(=O)Nc2ccccc2[N+](=O)[O-])C(=O)O1 (centres undefined)	.	-0.4	19.5%	-38.3%[inhibitor]	0.4%	-7.5
CCOC(=O)c1ccc(NC(=O)CSc2nc3ncc(Br)c(C)c3[nH]2)cc1	.	-0.6	.	.	-0.8%	0.2
COC(=O)Cc1c(C)c2ccc(OCC(=O)N3CCOCC3)cc2oc1=O	1.5	1.0	-1.6%	58.6%	-14.5%	27.6
COc1ccc(OC(=O)OCc2ccccc2)cc1	.	0.6	.	5.2%	-1.1%	-4.7
CC(C)CN(C(=O)COC(=O)c1ccccc1SCC(=O)N1CCCC1)C1CCS(=O)(=O)C1 (centres undefined)	.	1.2	9.3%	-26.5%	-1.8%	-17.7
CCn1c(SCC(=O)Nc2ccc3[nH]c(=O)[nH]c3c2)nnc1-c1ccccc1	-0.8	0.0	5.6%	-4.7%	-0.8%	21.3
COc1ccc(C(C(=O)NC2CCCCC2)N(C(=O)CCl)c2ccc(OC)cc2)cc1 (centres undefined)	2.7	0.0	3.7%	3.4%	-1.8%	3.1
CCC1CCCCN1C(=O)CSc1nc(N)c(NC(=O)c2ccco2)c(=O)[nH]1 (centres undefined)	1.8	-0.3	2.1%	-4.1%	1.1%	-3.0
CC(C)COc1ccc(C(=O)OCC(=O)NCc2cccs2)cc1	.	2.0	13.9%	4.0%[15.4 µM]	-11.7%	2.7
CCOc1ccccc1C1CC(=O)Nc2c1c(=O)n(C)c1ncnn21 (centres undefined)	.	0.8	.	.	-5.0%	-6.0
c1ccc2sc(-c3ccncc3)nc2c1	0.5	-1.1	-0.6%	16.5%[15.4 µM]	.	-5.4
COc1ccc(Nc2nc(-c3ccccc3)c3cc(Br)ccc3n2)cc1	.	0.5	.	.	-0.9%	49.3
O=C1c2ccc(-c3ccc(F)cc3OCc3ccccc3)cc2S(=O)(=O)c2cccc(C(=O)N3CCCC3)c21	.	-0.4	-28.9%	-43.5%[inhibitor]	-0.4%	15.1
COc1cccc(/C=N/NC(=O)CCn2cnc3ccccc32)c1	0.6	0.3	-3.9%	10.5%[15.4 µM]	.	70.6
COc1ccc(OC)c(NC(=O)CSc2nc(O)cc(=O)n2CC(C)C)c1	.	2.2	-19.1%	-4.4%	.	-12.7
COC(=O)c1ccccc1NC(=O)CSc1ccccn1	5.4	1.0	-1.8%	2.6%	-0.6%	41.7
CCOC(=O)c1c(C)sc2c1N(C(=O)CN(CC)CC)c1ccccc1S2	1.0	-0.8	-21.1%	-28.0%	3.4%	4.7
COc1ccc(-n2c(=O)c3ccccc3n(CC(=O)Nc3cccc(OC)c3)c2=O)cc1	2.4	.	-22.5%	-50.8%[inhibitor]	-2.0%	.
CC(=O)N1CCN(c2ccc(NC(=O)c3ccccc3Cl)cc2)CC1	1.5	-0.6	-5.3%	8.0%	.	-16.3
CCc1ccc(CN2CCN(c3ncccn3)CC2)cc1	0.8	-0.3	-4.9%	16.0%	0.3%	6.6
O=C(NNS(=O)(=O)c1ccccc1F)c1cccc(S(=O)(=O)N2CCOCC2)c1	4.4	-0.6	9.4%	8.4%	-2.0%	4.8
Cc1ccccc1Cn1c2ccccc2c2cnn(CC(=O)N3CCN(c4ccccc4)CC3)c(=O)c21	0.3	-0.1	1.9%	-15.8%	?	-6.1
COCCN(Cc1cc2ccc(C)cc2n2nnnc12)Cc1nnnn1C(C)(C)C	0.9	-1.1	-10.6%	26.1%	-1.1%	-9.4
COc1ccccc1N1CCN(C(=O)C(C)N(c2ccc(C)cc2)S(C)(=O)=O)CC1 (centres undefined)	2.9	-0.7	-3.5%	1.2%	-0.7%	5.8
C=CCOc1ccc(Br)cc1/C=C1\NC(=S)N(C(C)=O)C1=O	11.8	-0.5	?	-66.4%[inhibitor]	.	-1.0
COC(=O)c1ccc(CNC(=O)c2ccc(S(=O)(=O)N3CCCC(C)C3)cc2)cc1 (centres undefined)	.	3.4	10.0%	-0.4%	2.0%	-16.0
COC(=O)C1C2C=CC3(CN(C(C)C)C(=O)C13)O2 (centres undefined)	0.8	0.8	14.5%	17.2%	2.8%	-26.6
Cc1noc(C)c1NC(=O)N(C)C[C@H]1Oc2ccc(NC(=O)Cc3ccccc3)cc2C(=O)N([C@H](C)CO)C[C@@H]1C	.	-0.6	-1.9%	.	-2.5%	-1.2
O=C(NCc1ccco1)C1CCN(C(=O)c2ccc(Cl)cc2Cl)CC1	0.0	-0.2	10.3%	?	.	-3.1
CC(C)(C)[C@H]1C=C(C(=O)NCc2ccccc2)O[C@@H](OCc2ccc(CO)cc2)C1	-0.5	0.2	-19.4%	.	1.2%	40.8
CCCC1S/C(=N/N=C/c2ccco2)NC1=O (centres undefined)	4.0	7.6	-1.4%	-9.1%	-0.1%	-12.4
O=C(O)Cc1ccc(NC(=O)c2cccc(NC(=O)c3ccco3)c2)cc1	-3.6	0.7	5.0%	4.8%	.	10.1
Nc1ccc(S(=O)(=O)Nc2nccc(/C=C/c3ccc(Cl)cc3)n2)cc1	-3.0	0.1	16.6%	-46.3%[inhibitor]	.	6.6
O=C(CCN1CCN(c2ccccc2)CC1)Nc1cccc(Br)c1	-1.2	-0.8	2.5%	-33.8%[inhibitor]	1.8%	14.3
O=C(c1ccccc1F)N1CCN(C(=O)C2CC2)CC1	.	0.9	4.5%	-10.4%[15.4 µM]	-8.7%	-15.1
O=C(Cc1ccccc1)N1CCCC(c2nc(-c3ccc(S(=O)(=O)N4CCCC4)cc3)no2)C1 (centres undefined)	1.7	0.4	-17.0%	-34.1%[inhibitor]	1.0%	0.1

Some of the entries so far, in markdown.
| SMILES | Menin-MLL FL inh | TRPML1 ag | gsp antag | gsp ag | ClpP mod | TRPML1 blocker |
| --- | --- | --- | --- | --- | --- | --- |
| CC1(C)CC(CC(=O)Nc2ccccc2[N+](=O)[O-])C(=O)O1 (centres undefined) | . | -0.4 | 19.5% | -38.3%[inhibitor] | 0.4% | -7.5 |
| CCC1CCCCN1C(=O)CSc1nc(N)c(NC(=O)c2ccco2)c(=O)[nH]1 (centres undefined) | 1.8 | -0.3 | 2.1% | -4.1% | 1.1% | -3.0 |
| O=C(NNS(=O)(=O)c1ccccc1F)c1cccc(S(=O)(=O)N2CCOCC2)c1 | 4.4 | -0.6 | 9.4% | 8.4% | -2.0% | 4.8 |

(cont.)
SMILES	Menin-MLL FL inh	TRPML1 ag	gsp antag	gsp ag	ClpP mod	TRPML1 blocker
CC1=C(C(=O)N(C(C)C)C(C)C)CC(CC(=O)NCc2cccc3ccccc23)C(=O)N1Cc1ccc(C(C)(C)C)cc1 (centres undefined)	.	0.7	.	.	-11.9%	-2.4
COc1ccc(C(=O)C[N+]2(C)CCOCC2)cc1	0.9	-0.4&-0.6	-4.4%	-27.5%	-0.5%&-0.2%	1.7
CCC(=O)Nc1ccccc1-c1nc2ccccc2n(CC(=O)Nc2ccc(C)c(C)c2)c1=O	.	0.4	.	.	-0.5%	-0.5
CCOC(=O)N1CCN(C(=O)c2ccccc2SCC(=O)NCC2CCCCC2)CC1	.	-0.8	-2.1%	-20.2%	-0.2%	-11.1
Cn1c(-c2cccc(Br)c2)n[nH]c1=O	4.6	-0.1	-0.6%	-6.4%[15.4 µM]	.	-16.9
O=C(NCC1CC1)NC(=O)c1c(F)cccc1Cl	-4.6	2.5	6.4%	-3.7%	-1.1%	7.7
Cc1cc(C)c2c(ccc3ccccc32)n1	.	1.9	-2.1%	-11.4%	?	4.4
Cn1c(C(=O)NC2CCCCCC2)cc2c(=O)n(C)c3ccccc3c21	3.9	2.3	?	-18.0%	3.4%	7.8
COc1ccc(NC(=O)c2ccc(F)cc2)cc1S(=O)(=O)Nc1cc(C)ccc1Br	2.5	1.9	20.8%	5.8%	-1.3%	15.6
Cc1ccc(NC(=O)CSc2nnc(CN3CCOCC3)n2C)cc1C	1.6	-0.5	12.1%	-36.2%[inhibitor]	2.6%	-1.9
O=c1c(O)c(-c2ccc(O)c(O)c2)oc2cc(O)ccc12	?	.	7.4%	.	-16.8%	.
COc1ccc(C(O)c2coc3ccc(O)c(CN(C)C)c23)cc1 (centres undefined)	6.6	0.3	14.7%	-32.8%[inhibitor]	-5.6%	4.1
CN(C(=O)c1ccc(NC(=O)Cc2ccc(NC(=O)C3CCN(C(=O)CCc4ccccc4)CC3)cc2)cc1)C1CCCC1	.	-0.8	5.3%	.	0.8%	7.4
COC(=O)CCN(Cc1cc(OC)ccc1OC)S(=O)(=O)c1ccccc1Br	.	1.2	-1.1%	.	0.8%	1.2
CCOC(=O)CC[C@H](NC(=O)Cn1cnc2c(SC)nc(N)nc21)C(=O)OCC	.	-0.4	-0.2%	.	4.4%	-1.4
CSCC(C)N1CCC(n2nccc2NC(=O)CCCc2ccccc2)CC1 (centres undefined)	?	3.2	9.4%	?	1.1%	22.3
Cc1ccc(NC(=O)COC(=O)CCc2ccc(S(=O)(=O)N3CCOCC3)cc2)c(C)c1	-1.4	3.9	-10.1%	-35.3%[inhibitor]	0.7%	11.6
COc1ccc(/C=C2\NC(=S)N(CC3CCCO3)C2=O)c(OC)c1 (centres undefined)	8.2	1.5	-7.0%	2.6%	-0.1%	2.3
O=C(CO)N/N=C/c1ccccc1F	1.9	-0.2	2.7%	-8.9%	0.6%	15.4
CC1C(=O)CC(c2ccccc2)NC1c1ccccc1 (centres undefined)	1.7	0.5	2.4%	-21.2%	1.5%	-1.0
CCOC(=O)N1CCN(C(=O)Cn2cc3c(n2)CCCC3)CC1	2.1	0.1	4.1%	-12.5%	0.9%	-10.8
Cc1ccc(C2=NN(CC(=O)NCCCN(CC(C)C)CC(C)C)C(=O)CC2)cc1	.	-1.1	.	.	-0.1%	-6.1
Cn1c(=O)oc2cc(S(=O)(=O)N3CCCC(C(=O)N4CCN(c5ccccc5F)CC4)C3)ccc21 (centres undefined)	.	-0.3	.	.	0.0%	1.6
CC(NC(=O)c1cccc(S(=O)(=O)N2CCN(Cc3ccccc3)CC2)c1)c1ccc(Cl)cc1 (centres undefined)	.	2.4	-4.1%	-6.3%[15.4 µM]	.	-1.9
CCCC(=O)OCCNc1cc(SCc2ccco2)c2nonc2c1[N+](=O)[O-]	-0.6	0.0	-2.1%	0.4%	-0.9%	-9.5
COc1ccc(NC(=O)c2sc3ncnc(N4CCN(c5ccccn5)CC4)c3c2C)cc1Cl	.	-0.6	?	20.6%	-14.9%	13.0
CN(Cc1ccc(F)cc1)C(=O)CN1C(=O)c2ccccc2S1(=O)=O	.	-0.4	-1.0%	-2.8%[15.4 µM]	-9.5%	-3.2
CCCC1CCc2c(c3ccccc3[nH]c2=O)O1 (centres undefined)	0.8	-0.6	2.2%	-34.7%[inhibitor]	-4.0%	13.8
Nc1nc2c(ncn2COC(CO)CO)c(=O)[nH]1	?	0.2&-0.3	3.1%	.	?	-4.5
